KCNQ2 block: KCNQ2 channel blockers in CHO-K1 cells – cell-based, FluxOR thallium flux, B-score, primary screen (AID 2156); O88943; 20 min; stronger effect = lower value; only compounds with negative scores are shown here; some inactives read as strong as hits; B-score at 10 µM; 310,000 compounds, 1.1% hits;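 active = fluorescence ratio B-score at most minus 3 library SDs, with starting brightness B-score within 2 library SDs, cut at about -5.5 in these data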
Target sequence (O88943 whole entry, looked up): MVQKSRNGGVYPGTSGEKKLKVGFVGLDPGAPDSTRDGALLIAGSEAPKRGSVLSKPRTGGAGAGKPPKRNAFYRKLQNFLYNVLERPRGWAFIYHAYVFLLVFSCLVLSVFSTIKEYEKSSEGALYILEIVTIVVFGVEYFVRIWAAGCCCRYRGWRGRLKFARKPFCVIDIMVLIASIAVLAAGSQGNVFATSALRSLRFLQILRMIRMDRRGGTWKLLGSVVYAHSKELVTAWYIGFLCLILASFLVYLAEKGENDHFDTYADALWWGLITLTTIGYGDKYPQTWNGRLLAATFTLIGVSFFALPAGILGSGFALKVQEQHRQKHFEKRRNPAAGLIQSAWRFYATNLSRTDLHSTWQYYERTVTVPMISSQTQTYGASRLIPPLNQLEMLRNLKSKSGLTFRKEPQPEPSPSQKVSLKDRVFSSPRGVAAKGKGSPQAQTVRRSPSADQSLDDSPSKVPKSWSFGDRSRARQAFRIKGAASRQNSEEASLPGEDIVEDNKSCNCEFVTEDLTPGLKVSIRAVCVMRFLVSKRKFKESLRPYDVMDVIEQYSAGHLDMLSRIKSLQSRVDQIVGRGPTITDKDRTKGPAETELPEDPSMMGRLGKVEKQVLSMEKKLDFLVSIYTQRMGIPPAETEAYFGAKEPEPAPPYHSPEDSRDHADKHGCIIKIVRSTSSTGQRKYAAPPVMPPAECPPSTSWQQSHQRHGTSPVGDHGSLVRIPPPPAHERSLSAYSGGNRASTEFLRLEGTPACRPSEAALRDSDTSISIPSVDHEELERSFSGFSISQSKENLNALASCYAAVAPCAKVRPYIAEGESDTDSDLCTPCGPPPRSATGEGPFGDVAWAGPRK
KCNQ2 block baseline: recorded beside KCNQ2 block, whose call it bears; B-score; measured here: initial fluorescence intensity artifact check;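 brightness before thallium and not channel activity; 0 = typical well and far values either way flag optical interference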
* = called active by the depositor; i = inactive.

KCNQ2 block | KCNQ2 block baseline | SMILES
i | -2 | c1ccc2c(c1)nc(N1CCCCCC1)c1ccccc12
i | -0.14 | O=C(N/N=C/c1ccc(-c2ccccc2[N+](=O)[O-])o1)[C@H]1C[C@@H]1c1ccccc1
i | 1.5 | Cc1oc(S(=O)(=O)N2CCCC2)cc1C(=O)Nc1ccccc1
i | -1 | Cc1ccccc1NC(=S)NC1CCN(Cc2ccccc2)CC1
i | -1.4 | COC(=O)C(Cc1c[nH]c2ccccc12)NC(=O)c1cncc(Br)c1 (stereo not given)
i | 0.45 | Cc1ccc(S(=O)(=O)N2CCC(C(=O)N[C@@H](C)C(=O)Nc3ccc(F)cc3)CC2)cc1
i | -0.04 | COc1cccc(C(=O)Nc2ccc(Cl)c(C(F)(F)F)c2)c1
i | -1.8 | COc1ccc(CN2C(=O)c3ccccc3C2=O)cc1C(=O)OCC(=O)NC1CCCCC1
i | 0.39 | CC(=NCCc1c(C)[nH]c2ccc(C)cc12)C1=C(O)CC(c2ccccc2)CC1=O (stereo not given)
i | -0.86 | CSc1nc(SCCO)c2sc3nc(-c4ccco4)c4c(c3c2n1)CC(C)(C)OC4
i | 0.1 | Cc1cc(C)cc(NS(=O)(=O)c2ccc3[nH]cc(C(=O)N4CCc5ccccc54)c(=O)c3c2)c1
i | -0.46 | CC(NC(=O)C12CC3CC(CC(C3)C1)C2)C(=O)N/N=C/C1=C(N2CCOCC2)C(=C\c2cccc([N+](=O)[O-])c2)/CC1 (stereo not given)
i | -1.4 | Cn1cc(S(=O)(=O)Nc2ccc(OC(F)(F)F)cc2)c(=O)n(C)c1=O
i | 1 | CCc1ccccc1N(C(C)=O)c1nc(CCl)cs1
i | 1.6 | O=C(NC1CCS(=O)(=O)C1)OC1CCCCC1 (stereo not given)
i | 0.23 | c1cc(-c2cc3cc(N4CCOCC4)ccc3o2)cs1
i | 0.81 | Cc1nn(C)cc1/C=N/n1nnnc1N
i | -0.55 | O=C(c1ccco1)N1CCN(Cc2nc3ccccc3c(=O)n2-c2ccc(F)cc2)CC1
i | 0.11 | COc1ccc(S(=O)(=O)N2CCN(c3cccc(C)c3C)CC2)cc1
i | -0.17 | CCCC(=O)c1ccc(N2CCC(C)CC2)c(F)c1

The list goes on (2 carried over from the part before).
KCNQ2 block | KCNQ2 block baseline | SMILES
i | 0.11 | COc1ccc(S(=O)(=O)N2CCN(c3cccc(C)c3C)CC2)cc1
i | -0.17 | CCCC(=O)c1ccc(N2CCC(C)CC2)c(F)c1
i | 0.7 | O=C(Nc1ccc2c(c1)ncn2-c1ccccc1)c1ccco1
i | 1.7 | CC1=NN(Cc2ccccc2)C(=O)/C1=C/c1ccc(N(C)C)cc1
i | -2.1 | CCOC(=O)c1c(-c2cccc(C)c2)csc1NC(=O)c1c(-c2ccccc2)noc1C
i | 1.3 | COc1ccccc1NC(=O)Nc1nc(CC(=O)NCc2c(F)cccc2F)cs1
i | -0.04 | O=C(Cc1ccccc1)NC1CCN(C(=O)NCc2ccccc2)CC1
i | 1.8 | COCCNc1oc(/C=C/c2ccc(F)cc2)nc1S(=O)(=O)c1ccccc1
i | -0.01 | Nc1nonc1C(=O)OCC(=O)c1ccc(Cl)cc1
i | 1.5 | CSc1ccc(S(=O)(=O)N2CCC(C(=O)NCc3ccncc3)CC2)cc1
i | -0.1 | COc1ccc(NC(=O)C(OC(=O)c2ccc([N+](=O)[O-])o2)c2ccccc2)cc1Cl (stereo not given)
i | -0.07 | Cc1nc(C)n(CC(=O)N2CCCC(C(=O)c3cccc4ccccc34)C2)n1 (stereo not given)
i | 0.06 | CC(=O)c1ccc(-n2c(CCC(=O)O)ccc2-c2ccc(C)cc2)cc1
i | -1.1 | CCCn1cc(C(CC(=O)O)C(=O)O)c2ccccc21 (stereo not given)
i | 0.12 | Cc1ccccc1CNC(=O)c1ccccc1NS(C)(=O)=O
-5.8* | -0.51* | COC(=O)C1=C(C)NC(C)=C(C(=O)O[C@@H]2CCCN(Cc3ccccc3)C2)[C@@H]1c1cccc([N+](=O)[O-])c1
i | 0.12 | COc1ccc2cc(C(=O)NCc3ccccc3)c(=Nc3ccc(C(=O)O)cc3)oc2c1
i | 0.98 | Cc1ccc(NC(=O)c2ccc(-c3nn(C)c(=O)c4ccccc34)cc2)cc1
i | 2 | CCCNC(=O)c1ccc2c(c1)ncn2-c1ccccc1OC
i | -0.47 | COc1ccc(C)cc1NC(=O)CSc1nnc2ccc(-c3cccnc3)nn12
i | -0.6 | Cc1cnc(=O)[nH]c1SCc1cccc(C(F)(F)F)c1
i | 1.1 | CSc1nncc(/C(C)=N\Nc2ccccc2)n1
i | -0.41 | COc1cc(OC)cc(C(=O)NC(=S)Nc2ccc3[nH]c(=O)[nH]c3c2)c1
i | 0.32 | CCCCOc1c(C(=O)Nc2ccccc2)nnn1-c1ccccc1
i | 0.13 | CC1(C)CC(=O)C2=C(C1)Nc1cc3c(cc1C2c1ccc2c(c1)OCO2)OCO3 (stereo not given)
i | 1.2 | Cc1nn(-c2ccccc2)c(C)c1-c1nnc(C(F)(F)F)o1
i | -1.1 | Cc1nc(-c2ccc(NC(=O)C(C)(C)C)cc2)c(-c2ccccc2)o1
i | 0.01 | COc1cc2c(cc1OC)C(C)N(CC(=O)Nc1ccc(C)c(S(=O)(=O)N3CCOCC3)c1)CC2 (stereo not given)
i | 2.2 | CCOC(=O)C1CCCN(S(=O)(=O)c2ccc(F)c(C(=O)Nc3ccc(F)c(F)c3)c2)C1 (stereo not given)
i | 0.41 | Cc1cc(NC(=O)COC(=O)COc2ccc3c(c2)CCC3)no1
i | -1.2 | O=C(c1cc2cc([N+](=O)[O-])ccc2oc1=O)n1cccn1
i | 1.2 | CCOc1cc(/C=N/NC(=O)CN(CCc2ccccc2)S(=O)(=O)c2ccc(NC(C)=O)cc2)ccc1O
i | -0.29 | CC(O)c1nc2ccc(Cc3ccc4nc(C(C)O)[nH]c4c3)cc2[nH]1 (stereo not given)
i | -1.5 | COc1ccc(NC(=O)c2cc(-c3ccncc3)nc3ccc(Br)cc23)cc1OC
i | 1 | CC(NC(=O)COC(=O)Cc1ccsc1)c1ccccc1 (stereo not given)
i | -0.62 | O=C(C[n+]1cc(-c2ccc(Cl)cc2)n2c1CCC2)N1c2ccccc2Sc2ccccc21
i | -3.2 | Cc1ccc(S(=O)(=O)N(CC(=O)NCc2ccco2)C2CCCCC2)cc1
i | -0.75 | COc1ccc(OC)c(NC(=O)CCNS(=O)(=O)c2ccc3[nH]c(=O)oc3c2)c1
i | -0.71 | Cc1nc2cc(-c3cccc(F)c3)nn2c(C)c1CCC(=O)N1CCN(c2ccccn2)CC1
i | 1.2 | Cc1cc2oc(=O)cc(CN(C)Cc3ccccc3F)c2cc1Cl
i | 0.45 | O=C(Nc1ccccc1)c1ccc(NCc2cccnc2)c(S(=O)(=O)N2CCOCC2)c1
i | -1.7 | COc1cc(-c2cc(=O)c3c(O)c(OC)c(OC)c(O)c3o2)ccc1O

7 of the compounds above, with bars between the fields.
SMILES | KCNQ2 block | KCNQ2 block baseline
CCCCOc1c(C(=O)Nc2ccccc2)nnn1-c1ccccc1 | i | 0.32
CC1(C)CC(=O)C2=C(C1)Nc1cc3c(cc1C2c1ccc2c(c1)OCO2)OCO3 (stereo not given) | i | 0.13
Cc1nn(-c2ccccc2)c(C)c1-c1nnc(C(F)(F)F)o1 | i | 1.2
Cc1nc(-c2ccc(NC(=O)C(C)(C)C)cc2)c(-c2ccccc2)o1 | i | -1.1
COc1cc2c(cc1OC)C(C)N(CC(=O)Nc1ccc(C)c(S(=O)(=O)N3CCOCC3)c1)CC2 (stereo not given) | i | 0.01
CCOC(=O)C1CCCN(S(=O)(=O)c2ccc(F)c(C(=O)Nc3ccc(F)c(F)c3)c2)C1 (stereo not given) | i | 2.2
Cc1cc(NC(=O)COC(=O)COc2ccc3c(c2)CCC3)no1 | i | 0.41

The listing continues.
KCNQ2 block | KCNQ2 block baseline | SMILES
i | 0.06 | O=C(OCC(=O)N1CCCC1)c1ccc(O)cc1
i | -0.8 | O=C(COC(=O)c1cccc(S(=O)(=O)N2CCCCC2)c1)NC1CCCc2ccccc21 (stereo not given)
i | 4.9 | O=C(CCN1CCN(C/C=C/c2ccccc2)CC1)Nc1cccc(F)c1
i | -0.41 | C=CCN(C(=O)c1cccc(S(=O)(=O)N2CCN(C)CC2)c1)c1nc(-c2ccccc2)cs1
i | -0.34 | CCCc1cc(=O)n2[nH]c(SCc3ccccc3)nc2n1
i | 0.83 | O=C(NCc1n[nH]c(=S)n1-c1ccccc1Cl)c1ccc(S(=O)(=O)N2CCCCC2)cc1
i | 0.04 | CC(C)OP(=O)(OC(C)C)C(Nc1ccccc1)c1cccc2c1OCO2 (stereo not given)
i | 0.32 | CN(Cc1ccc(C(C)(C)C)cc1)C(=O)c1ccc2c(=O)n3c(nc2c1)CCC3
i | 1.4 | CCOC(=O)C1(Cc2ccc(OC)cc2)CCN(C(=O)c2sc(C)nc2C)CC1
i | 2.1 | Cc1cc(Br)ccc1OCCn1ccnc1
i | 1.4 | Cc1ccc(C)c(Cn2cnc3c(cnn3C(C)(C)C)c2=O)c1
i | -1.3 | CCOc1ccc(NC(=O)c2oc3ccccc3c2NC(=O)CC)cc1
i | -0.96 | Cc1c(C(=O)N(Cc2ccc(F)cc2)C2CCS(=O)(=O)C2)oc2ccccc12 (stereo not given)
i | 0.72 | Cc1[nH]ccc(=O)c1Oc1ncc(C(F)(F)F)cc1Cl
i | 0.27 | CCc1nnc(NC(=O)CSc2nnc(-c3ccoc3C)n2-c2ccccc2)s1
i | 0.25 | Cc1cc(Nc2ccc(F)cc2Cl)n2ncnc2n1
i | -1 | Cn1cnnc1SCC(=O)Nc1ccccc1Oc1ccccc1
i | 1.1 | O=C(NCCC1=CCCCC1)c1cc(COc2c(F)cccc2F)on1
i | 0.83 | Oc1ccccc1C(Nc1nccs1)c1ccc2cccnc2c1O (stereo not given)
i | 1.1 | Cc1ccc(C)c(NC(=O)CSc2n[nH]c(-c3ccccn3)n2)c1
i | -1.6 | CCn1cc(C(=O)NC2CCc3ccccc32)c(=O)c2ccc(C)nc21 (stereo not given)
i | 0.72 | O=S(=O)(c1cccc(F)c1)N1CCN(Cc2ccc3c(c2)OCO3)CC1
i | -0.4 | COc1ccc(S(=O)(=O)N2CCCCC2)cc1NC(=O)c1cccs1
i | 0.16 | COc1cc(OC)c(C(=O)NCCCN2CCOCC2)cc1OC
i | -0.95 | O=C(NC(=S)NCc1cccnc1)c1ccc([N+](=O)[O-])cc1
i | 0.34 | Cc1ccoc1C(=O)N1CCCC(CCC(=O)N2CCN(c3ccccn3)CC2)C1 (stereo not given)
i | -1.6 | O=C(c1ccccc1CCc1ccccc1)N1CCOCC1
i | 0.13 | O=C(C[n+]1cccc2ccccc21)c1ccc(Cl)cc1
i | -0.47 | COc1ccccc1NC(=O)Cc1nnc(SCC(=O)c2ccccc2)n1C
i | 0.69 | COc1ccc(/C=N/NC(=O)c2cc[n+]([O-])cc2)cc1
i | -1.2 | O=S(=O)(c1ccc(F)cc1)N1CCN(C(=S)NCc2ccco2)CC1
i | 0.64 | COc1cc(CNCCc2ccc(F)cc2)ccc1OCc1ccc(Cl)nc1
i | 1.1 | CC/C(=N\Nc1ccc([N+](=O)[O-])cc1[N+](=O)[O-])c1ccc(O)cc1
i | 0.24 | O=C(O)CSCC(=O)N1CCN(S(=O)(=O)c2ccccc2)CC1
i | -0.68 | CN(Cc1ccccc1)C(=O)c1ccccc1NC(=O)c1ccco1
i | 0.05 | CC(C)(Oc1ccc(Cl)cc1)C(=O)OCC(=O)N1CCCC1
i | -0.3 | O=C(CSc1nc2ccccc2[nH]1)NCC1CCCO1 (stereo not given)
i | 1.2 | O=C(CSc1ccc2ccccc2n1)Nc1nsc(-c2ccc(Cl)cc2)n1
i | -0.41 | Cc1ccc(CN2CCS(=O)(=O)CC2)cc1
i | 1.6 | Nc1nccnc1C(=O)N/N=C/c1ccco1
i | 0.03 | COc1cc(/C=C(/C#N)c2nc3ccccc3c(=O)[nH]2)ccc1O
i | 0.79 | OC(COc1ccc2c(c1)OCO2)CN1CCc2ccccc2C1 (stereo not given)
i | 0.61 | O=C(/C=C/c1ccccc1)NC1CCS(=O)(=O)C1 (stereo not given)
i | 2.6 | O=S(=O)(NCCCc1ccccc1)c1ccc(Br)cc1
i | -0.14 | COC(=O)N/N=C/c1c(C)cc(C)cc1C
i | -1 | O=C(O)c1nnn(-c2ccc(F)cc2F)c1-c1ccccc1
i | 0.34 | CC(=O)[C@@H]1[C@@H](C(=O)c2ccc(C)cc2)[C@]2(C(=O)Nc3ccccc32)[C@H]2C=Cc3cc(F)ccc3N12
i | 1.5 | COc1cccc(CN2CCN(C(=O)c3ccc(-c4ccccc4)cc3)CC2)c1
i | -0.21 | O=C(Nc1ccccc1C(=O)OCC(=O)c1c[nH]c2ccccc12)c1ccco1
i | 1.6 | Cc1cc(C)nc(SCc2nnc(SCC(=O)N3CCCc4ccccc43)n2C)n1
i | -2.1 | CSc1ccc(CN(C)CC(=O)NCCc2ccccc2)cc1
i | 0.02 | Cc1ccc(C2C(C#N)=C(N)Oc3n[nH]c(-c4cccs4)c32)cc1 (stereo not given)
i | 0.69 | CC(=O)Oc1ccc(C(=O)[C@H]2[C@H]3C(=O)N(c4ccc5ccccc5c4)C(=O)[C@H]3[C@@H]3C=CC=NN32)cc1
i | 0.14 | CCCCn1c(C)csc1=Nc1cccnc1
i | 1.5 | Cc1nn(C)cc1S(=O)(=O)Nc1ccc(F)c(F)c1
i | -0.97 | CCc1cc(C(=O)COc2ccccc2F)c(O)cc1O
i | 1.2 | COc1ccc(OC(=O)c2cn(C)nc2C(F)(F)F)cc1
i | 0.85 | Cc1c(C#N)c(O)n(CCO)c(=O)c1N=Nc1ccccc1
i | -2.6 | Cc1noc(C)c1CS(=O)(=O)c1ccc(Br)cc1
i | -0.35 | CCCCN(C)Cc1cc(=O)oc2ccc3ccccc3c12
i | -0.05 | O=C(Oc1ccc(OC(=O)N2CCCCC2)cc1)N1CCCCC1
-8.5* | -1.6* | O=C(COc1ccccc1-c1ccccc1)NCc1ccco1

High-throughput results: PubChem, Johns Hopkins Ion Channel Center

The list is partial, so the mix of outcomes need not match the whole.
